StopGo FLuc: FMDV 2A StopGo reporter, firefly signal | HEK cells with a luciferase reporter of 2A StopGo recoding | Potency, µM (top dose mostly 57.5 µM), for inactives: at the top dose signal change, negative = less light | 0.23% of 120,000 active | AID 1745856; active = well fitted falling curve with a large enough effect; inconclusive = small, poorly fitted or top-dose-only effect; inactive = no such curve, though single readings can be large or run the other way; note: nearly all actives have a fitted effect of over 60% in size; overnight with compound
StopGo RLuc: lowers the Renilla signal of an FMDV 2A StopGo reporter | Potency, µM (series often up to 57.5 µM), for inactives: top-dose signal change, negative = less light | 0.32% of 120,000 active | HEK cells with a luciferase reporter of 2A StopGo recoding; active means well fitted falling curve with a large enough effect; inconclusive means small, poorly fitted or top-dose-only effect; inactive means no such curve, though single readings can be large or run the other way; note: nearly all actives have a fitted effect of over 55% in size; overnight with compound
Numbers without * were called inactive; ? = inconclusive; [ ] = remark or other dose. % is set by controls: 0 for no effect and ±100 for the full control effect; potency is the fitted concentration of half-maximal effect.

mol	StopGo FLuc	StopGo RLuc
Cc1ccc(-c2ccc(=O)n(Cc3noc(C(=O)NCCc4cccs4)n3)n2)cc1	11%	108%[activator]
O=S(=O)(c1ccc(F)cc1)c1nc(-c2ccc(F)cc2)oc1NCCN1CCOCC1	0%	30%[activator]
CN(C(=O)CSc1nc2ccccc2n1CC(=O)NCc1ccc(F)cc1)c1ccc(F)cc1	26%	129%[activator]
Cc1onc(-c2ccccc2)c1C(=O)Nc1nnc(CC(C)(C)C)s1	2%	9%
CCOC(=O)c1c(-c2ccc(OC)cc2)csc1NC(=O)CNC(C)(C)C	-15%	41%[activator]
Cc1cc2ccccc2n1CC(=O)N1CCN(CC(=O)N2CCCC2)CC1	11%	-6%
COc1ccc(C(=O)/C=C/c2cn(CC(O)CN3CCCCCC3)c3ccccc23)cc1OC (configuration not stated)	-13%	?
NC(=O)CSc1nc(-c2cccs2)nc2ccccc12	9%	-7%
COCCNC(=O)c1sc(NCc2ccco2)nc1C	3%	-13%
COc1ccc(CNS(=O)(=O)c2csc(C(N)=O)c2)cc1OC	-16%	2%
CC(Sc1nc(Cl)nc2nc[nH]c12)C(=O)N1CCN(c2cccc(Cl)c2)CC1 (configuration not stated)	0%	25%
Fc1cccc(Nc2ncnc3c2oc2ccccc23)c1	91%[activator]	7%
COc1cccc(CN2C(=O)c3ccccc3Sc3ccc(C(=O)NCc4ccccc4)cc32)c1	-2%	17%
O=C(O)c1nn(Cc2ccccc2)c(=O)c2ccccc12	42%[activator]	65%[activator]
CC(C)c1cc(N)n[nH]1	7%	12%
Cc1ccc(C)c(NC(=O)C2CCCN2S(=O)(=O)c2ccc3c(c2)CCCC(=O)N3)c1 (configuration not stated)	-16%	-22%
CCOC(=O)NC(c1ccccc1)C(C(=O)OCC)C(=O)OCC (configuration not stated)	7%	22%
Cc1cccc(C)c1NC1=NS(=O)(=O)c2ccccc21	-10%	5%
CCc1ccc(Nc2nnc(SCC(=O)Nc3ccnn3C3CCCC3)s2)cc1	?	?
O=C(CCl)N1CC=C(c2ccccc2)CC1	0%	-7%
COC(=O)c1ccc(OCC(O)CN2CCCN(c3ccc(C(F)(F)F)cn3)CC2)cc1 (configuration not stated)	?	?
Nc1cccc(COCC(F)(F)C(F)F)c1	-8%	-11%
Cc1cc(I)c(-c2c(I)cc(C)c(N)c2C)c(C)c1N	?	-73%
COc1ccc(SCCC(=O)NC23CC4CC(CC(C4)C2)C3)cc1	28%	14%
O=C(O)CCc1ncc(-c2c(F)cccc2F)o1	18%	12%
CCCn1c(SCC(O)c2ccccc2)nc2ccccc21 (configuration not stated)	-16%	4%
COc1ccccc1N1CCN(C(C(=O)O)c2c[nH]c3ccc(NC(=O)c4ccccc4)cc23)CC1 (configuration not stated)	89%[activator]	8%
CC(C)OC(=O)Cn1nnc2sc3c(c2c1=O)CCCC3	137%[activator]	24%
CC(c1ccccc1)N(C)C(=O)c1cccc(CS(C)(=O)=O)c1 (configuration not stated)	-13%	2%
CC(C)c1ccc(NC(=O)C2(C)Cc3ccccc3C(=O)O2)cc1 (configuration not stated)	180%[activator]	19%
CNC(=O)NC(=O)CN(C)Cc1ccc(C(C)C)cc1	5%	2%
CC(C)Cn1c(SC(C)C(=O)Nc2nccs2)nnc1-c1ccco1 (configuration not stated)	0%	3%
O=C(NCCC1CCCC1)C1CC1	0%	8%
CCc1ccc(CC)c(C(=O)Cn2c(Cl)nc3c2c(=O)n(C)c(=O)n3C)c1	?	?
c1ccc2c(NCc3ccc4c(c3)OCO4)nc(-c3ccncc3)nc2c1	0%	41%[activator]
COC(=O)CN(CC(=O)NC(N)=O)Cc1ccccc1	-2%	-1%
Cc1ccc(-n2ncc(C(=O)NCc3ccccc3)c2C2CCN(C(=O)OC(C)(C)C)CC2)cc1	-22%	-10%
CC[N+](CC)(CC)CCOc1ccc(/C=C/c2ccccc2)cc1	-11%	-16%
COc1cc2c(-c3ccc(C)cc3)nc3c(c(C)nn3-c3ccccc3)c2cc1OC	-18%	-9%
c1ccc(CSC2=NCCCN2)cc1	1%	-2%
c1csc(-c2nnc(COc3ccc(-n4cnnn4)cc3)o2)c1	70%[activator]	25%
CC(Nc1ccccc1[N+](=O)[O-])c1cccc(S(N)(=O)=O)c1 (configuration not stated)	-14%	-2%[1.06 µM]
Nc1c(C(=O)NCc2ccco2)nnn1-c1ccccc1	184%[activator]	4%
COc1ccc(-c2cn3c(n2)sc2cc(C(=O)NC(C)C45CC6CC(CC(C6)C4)C5)ccc23)cc1 (configuration not stated)	114%[activator]	7%
Cc1cccc(NC(=O)Cn2cc(C(=O)C3CCCCC3)c3ccccc32)c1C	?	-4%
O=C(Cn1ncc2c3ccccc3n(Cc3ccc(F)cc3)c2c1=O)NCCCN1CCCCC1	9%	-16%
COc1ccc(-c2cnn3c(C)cc(C)nc23)cc1S(=O)(=O)NCc1ccccc1C(F)(F)F	18%	-27%
Fc1ccc(F)c(CNCCN2CCCC2)c1	-4%	6%
Cc1ccccc1NC(=O)CSc1nc2ccc(NC(=O)c3cccs3)cc2s1	25%	26%
O=C(NC1CC1)c1ccc(CN(C2CC2)S(=O)(=O)c2ccc3c(c2)CCCC3)cc1	-1%	19%

Later entries:
mol	StopGo FLuc	StopGo RLuc
COc1ccccc1Oc1ccc(N/C=C/C(=O)c2ccc(Cl)cc2)cc1	45%[activator]	1%
Cc1ccccc1-c1noc(-c2ccc(N3CCN(C)CC3)c([N+](=O)[O-])c2)n1	-31%	-10%
Cc1nc2cc(C(=O)Nc3ccc(N(C)C)cc3)ccc2n1-c1ccccc1	1%	9%
CCOC(=O)/C(C#N)=C/N=CN(C)C	7%	4%
COc1cccc(NS(=O)(=O)c2ccc3[nH]cc(C(=O)N(C)C4CCCCC4)c(=O)c3c2)c1	-22%	12%
CCN1CCN(c2nc(SC)nc(-c3ccc(Cl)cc3)c2C#N)CC1	8%	-8%
Cc1ccc2nc(NC(=O)CSc3[nH]c(=O)ncc3C)sc2c1	30%[activator]	-6%
Cc1ccc(S(=O)(=O)N2CCn3cccc3C2c2ccccc2)cc1 (configuration not stated)	13%	47%[activator]
C=C(C)COc1ccc2c(C)c(CCC(=O)NC3CCS(=O)(=O)C3)c(=O)oc2c1 (configuration not stated)	3%	?
CCn1c(CNC(=O)c2ccc3c(c2)OCO3)nnc1SCC(=O)c1ccc(F)cc1	-5%	-17%
COc1ccc(Br)cc1CNC(=O)CCSCc1ccc(Cl)cc1	1%	3%
CC(C)c1cc(C(=O)NC(C)c2ccccc2)no1 (configuration not stated)	35%[activator]	20%
COc1cccc(NC(=O)c2ccc3nc(Cc4ccccc4)oc3c2)c1	12%	?
Cc1ccc(NC(=O)CSc2nc(=O)n(Cc3ccco3)c3c2CCC3)cc1F	-3%	?
Cc1ccnc(NC(=O)Cc2ccccc2Cl)c1	89%[activator]	2%
Cc1ccc(S(=O)(=O)N2CCN(CCS(=O)(=O)CCC(N)=O)CC2)cc1	-10%	-4%
Cc1ccc(NC(=O)CCc2ncc(-c3c(F)cccc3F)o2)c(Cl)c1	-6%	-12%
CC(C)(C)NC(=O)CN1CCN(c2cccc(F)c2C#N)CC1	-1%	-15%
Cc1cccc(C(=O)CC(=O)c2cccc(C)c2)c1	245%[activator]	13%
CN1CCN(S(=O)(=O)c2ccc(NC(=O)c3ccccc3Oc3ccccc3)cc2)CC1	-8%	-12%
Cc1ccc(Cl)cc1NC(=O)Cn1cc(S(=O)(=O)Cc2ccccc2Cl)c2ccccc21	13%	50%[activator]
CNS(=O)(=O)c1cc(NS(=O)(=O)c2ccc(Br)cc2Cl)ccc1C	2%	-3%
Oc1c(C(c2ccccc2F)N2CCC3(CC2)OCCO3)sc2nc(-c3ccco3)nn12 (configuration not stated)	5%	80%[activator]
Cc1c(NC(=O)c2cc(-c3cccc(Cl)c3)on2)c(=O)n(-c2ccccc2)n1C	-5%	-7%
CCCCOC(=O)C(C)Oc1ccc2c(=O)c(Oc3ccccc3Br)coc2c1 (configuration not stated)	9%	6%

Three compounds already listed, arranged by molar mass, largest number first.
mol	StopGo FLuc	StopGo RLuc
Cc1c(NC(=O)c2cc(-c3cccc(Cl)c3)on2)c(=O)n(-c2ccccc2)n1C	-5%	-7%
Cc1nc2cc(C(=O)Nc3ccc(N(C)C)cc3)ccc2n1-c1ccccc1	1%	9%
CCOC(=O)/C(C#N)=C/N=CN(C)C	7%	4%

Following part:
mol	StopGo FLuc	StopGo RLuc
c1ccc(-c2nc(-c3cccnc3)n[nH]2)cc1	22%	32%[activator]
CC(=O)OCC(=O)[C@@]1(O)CC[C@H]2[C@@H]3CCC4=CC(=O)C=C[C@]4(C)[C@H]3[C@@H](O)C[C@@]21C	1%[11.5 µM]	16%
O=C(c1ccc(F)cc1F)N(Cc1ccco1)C1CC1	-3%	4%
Cc1ccc(CN(C(=O)COc2ccc(Cl)cc2C)C2CCS(=O)(=O)C2)o1 (configuration not stated)	0%	16%
COc1ccc2cc(C(=O)NC3CCN(C(=O)c4ccccc4)CC3)c(C)nc2c1	-17%	-16%
CCCC1CCc2c(sc(NC(C)=O)c2C#N)C1 (configuration not stated)	37%[activator]	8%
COc1cccc(NC(=O)CSC2=Nc3ccccc3C3=NC(CCC(=O)NC4CCCCC4)C(=O)N23)c1 (configuration not stated)	0%	-8%
CCOCCn1c(=O)c2c(nc(-n3nc(C)c(C)c3C)n2C(C)C)n(C)c1=O	-11%	-12%
Cc1c(C(=O)NCc2ccc(Cl)cc2)sc2nc3n(c(=O)c12)CCCC3	0%	16%
O=C(CSc1nc2cc([N+](=O)[O-])ccc2o1)Nc1ccc2ccccc2c1	0%	0%
CCOc1ccc(-c2nc(NC(=O)c3cc(OC)cc(OC)c3)sc2C)cc1	-22%	?
CNC(=O)CN(C)C(=O)CCc1ncc(-c2ccccc2F)o1	121%[activator]	-10%
NC(=O)C1CCN(CC(=O)Nc2cccc(C(=O)Nc3cccc(C(F)(F)F)c3)c2)CC1	0%	-5%
COCc1nnc(NC(=O)CCn2ccc3ccccc32)s1	7%	-6%
CCC(C)[C@H](NC(=O)Nc1cc(OC)cc(OC)c1)C(=O)O (some centres not stated)	-5%	-8%
Cc1ccc(C(=O)N2CC(C)CC(C)C2)cc1 (configuration not stated)	8%	-8%
COC(CNC(=O)c1ccc(CNS(=O)(=O)c2ccc(C)cc2)cc1)OC	-1%	6%
COCCCNS(=O)(=O)c1ccc(N2CCCCS2(=O)=O)cc1	4%	-3%
CCCOc1cccc(-c2cc(C(=O)O)c3ccccc3n2)c1	0%	?
Cn1cccc1C(=O)c1ccc(Cl)cc1	0%	9%
COc1cc(C)c(S(=O)(=O)Nc2ccc(Nc3cc(N4CCCC4)nc(C)n3)cc2)cc1C	?	-52%
O=C1CCc2cc(C(=O)NCCc3ccc4c(c3)OCCO4)ccc2N1	8%	7%
O=C(Nc1cc2c(cc1C(=O)c1ccccc1)OCCO2)c1ccc(Br)cc1	22%	-4%
Cc1ccc(NC(=O)COCC(=O)N(c2ccccc2)c2ccccc2)cc1	10%	-2%
COc1ccc(C(=O)Nc2nc3nc(C)c(Cl)c(=O)n3[nH]2)cc1	-9%	-7%

Next section, starting with the last 4 of the part before.
mol	StopGo FLuc	StopGo RLuc
O=C1CCc2cc(C(=O)NCCc3ccc4c(c3)OCCO4)ccc2N1	8%	7%
O=C(Nc1cc2c(cc1C(=O)c1ccccc1)OCCO2)c1ccc(Br)cc1	22%	-4%
Cc1ccc(NC(=O)COCC(=O)N(c2ccccc2)c2ccccc2)cc1	10%	-2%
COc1ccc(C(=O)Nc2nc3nc(C)c(Cl)c(=O)n3[nH]2)cc1	-9%	-7%
CCc1nnsc1C(=O)N(C)CCOc1ccccc1C	3%	-5%
CCOc1ccc(-c2cc(C(=O)O)c3cc(C)ccc3n2)c(OCC)c1	?	?
Cc1ccc(/C=C/c2onc(C)c2S(=O)(=O)N2CCC(C(=O)NCc3ccc(N(C)C)cc3)CC2)cc1	-20%	0%
Cc1ccc(-c2nnc(SCC(=O)Nc3c(C)nn(-c4ccccc4)c3C)n2N)cc1	-1%	-4%
CC(C)c1ccc(NC(=O)c2ccc[n+]([O-])c2)cc1	0%	4%
CCCn1nc(C(=O)NC2CCN(C(C)C)CC2)c2ccccc2c1=O	-9%	-19%
O=C(OCC1CCCO1)c1ccc2c(c1)N(Cc1ccccc1)C(=O)c1ccccc1S2(=O)=O (configuration not stated)	-19%	-15%
CCc1ccc(NC(=O)CSc2nccn2Cc2ccccc2OC)cc1	6%	4%
CCCCOC(=O)COc1ccc2c(=O)c(-c3ccccc3OC)coc2c1	-7%	-10%
CC(C)(C)NC(=O)C1CC1	-1%	0%
Cc1nn(-c2ccc3nncn3n2)c2c1C(c1c(F)cccc1F)CC(=O)N2 (configuration not stated)	1%	-13%
CCCCNC(=O)c1ccc2c(=O)n(Cc3ccc(OC)cc3)c(=O)[nH]c2c1	-10%	-1%
CCOC(=O)c1nc(Nc2ccccc2C)c2ccccc2n1	-7%	0%
Cc1sc2ncn(CC(=O)NC3CCCc4ccccc43)c(=O)c2c1-c1ccccc1 (configuration not stated)	51%[activator]	15%
O=C(Nc1cccc(S(=O)(=O)N2CCCCC2)c1)c1ccc(OCc2cn3ccccc3n2)cc1	0%	0%

Not all compounds are listed. The share of hits here may be higher or lower than overall.
